Screening results deposited in PubChem BioAssay by Broad Institute.
Calb FLC – affects C. albicans growth with fluconazole; C. albicans CaCi-2 (fluconazole-resistant clinical isolate) + fluconazole, Alamar Blue growth, 48 h; growth inhibition, % (no concentration beside the values); 300,000 compounds, 0.57% hits;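 active means most replicates above 75%; inconclusive means exactly half above 75%; inactive means most below 75%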;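 further: all wells also contain fluconazole at 8 µg/ml as a sub-toxic cotreatment; 0% = median of DMSO wells and 100% = median of geldanamycin control wells; wells of about 8 µL received 7.5 nL stock; the first replicate is given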
Beta apoptosis – blocks beta cell apoptosis; INS-1E cytokine-induced death, ATP luminescence, 48 h; percent of positive-control rescue, neutral wells zero; 300,000 compounds, 0.8% hits; AID 435005; protection from apoptosis, % (concentration not given with the values);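 active means all replicates at 75% or more, or half of them and the mean; inconclusive means half reach 75% but not the mean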;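 further: 0% = cytokine-treated negative control wells and 100% = positive control rescue; higher means more ATP so stronger rescue from cytokine killing; wells of about 40 µL received 100 nL stock; the first replicate is given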
AF4-AF9 inh – MLL-AF4/AF9 protein interaction inhibition; P42568; AlphaScreen, biotin-AF4 peptide binding to FLAG-AF9; inhibition, % at 10 µM; 350,000 compounds, 0.47% hits; AID 651704;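 active means every replicate reaching a set inhibition limit, whatever the replicate mean, cut at about 25% in these data; inconclusive means mean inhibition reaches that limit but some replicates miss it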;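 further: 0% = plate neutral control median and 100% = total signal loss; the record names both 10 and 1 µM as test concentration; the first replicate is given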
Target sequence (P42568 whole entry, looked up): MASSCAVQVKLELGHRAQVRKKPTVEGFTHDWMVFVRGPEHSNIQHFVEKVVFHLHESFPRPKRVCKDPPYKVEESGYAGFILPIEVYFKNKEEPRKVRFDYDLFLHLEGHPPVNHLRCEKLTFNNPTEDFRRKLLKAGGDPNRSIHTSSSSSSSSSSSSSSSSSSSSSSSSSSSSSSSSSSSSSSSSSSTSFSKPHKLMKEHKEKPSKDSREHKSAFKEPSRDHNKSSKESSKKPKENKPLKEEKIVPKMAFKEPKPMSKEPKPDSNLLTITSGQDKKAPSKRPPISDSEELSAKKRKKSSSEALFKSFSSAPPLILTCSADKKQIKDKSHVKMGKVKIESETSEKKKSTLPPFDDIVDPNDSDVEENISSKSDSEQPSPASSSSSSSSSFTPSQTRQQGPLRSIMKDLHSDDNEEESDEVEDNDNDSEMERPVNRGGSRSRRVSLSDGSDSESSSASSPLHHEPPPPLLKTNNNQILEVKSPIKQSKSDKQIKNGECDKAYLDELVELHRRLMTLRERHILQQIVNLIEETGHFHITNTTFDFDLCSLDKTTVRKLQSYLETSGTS
T cruzi inh – T. cruzi replication inhibition; T. cruzi beta-gal in NIH3T3, luminescence, 90 h; inhibition, % (test concentration not listed); 300,000 compounds, 1.4% hits; AID 1885;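 active means mean inhibition across valid replicates above about 55%, limit read from the data; inconclusive means mean below that limit but half or more replicates reach it; inactive means mean below it, under half of replicates reach it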;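 further: signal also drops with host cell toxicity which is not excluded here; 0% = plate median of DMSO wells and 100% = zero luminescence signal; higher percent means less beta-gal luminescence so fewer parasites; stock transfer was 50 nL into about 50 µL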
ALR H2O2 inh – human ALR oxidase inhibition via reduced H2O2 | P55789 | purified ALR, DTT oxidation, H2O2 HRP-luminol luminescence | inhibition, % (no concentration beside the values) | 290,000 compounds, 3.8% hits | AID 485317;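 active means mean and each replicate at 75% or more; inconclusive means only one of the two met; inactive means neither met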;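 further: stock transfer was 7.5 nL into about 7.5 µL; 0% = neutral wells and 100% = wells with inactivated enzyme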
Target sequence (P55789 whole entry, looked up): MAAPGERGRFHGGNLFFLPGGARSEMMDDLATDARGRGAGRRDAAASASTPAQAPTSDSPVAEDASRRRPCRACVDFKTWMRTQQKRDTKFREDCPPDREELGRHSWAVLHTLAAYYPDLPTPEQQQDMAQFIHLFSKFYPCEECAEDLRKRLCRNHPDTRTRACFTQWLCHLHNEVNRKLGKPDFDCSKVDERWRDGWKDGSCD
rRNA inh HTS – inhibits bacterial ribosomal RNA function over humanized ribosomes | E. coli WT GFP vs humanized-ribosome RFP mutants, fluorescence, 24 h; stronger effect = lower value; DMSO median 0, no signal -100 | 350,000 compounds, 1.6% hits | AID 720706 | GFP signal change (wild-type ribosome), % (no concentration beside the values);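 active means significant combined selectivity score with lowered wild-type GFP, culture density cut under 30%, mutant RFP and density less affected; inactive means any of these conditions unmet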; further: one replicate is shown; some compounds called inactive have numbers as strong as hits
FGF22 binding – shifts melting point of recombinant human FGF22. Q9HCT0. recombinant FGF22 thermal shift, SYPRO orange fluorescence; percent of sucrose octasulfate shift, DMSO zero. calls only at 9.99 µM. 340,000 compounds, 1.5% hits. AID 651658;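 active means melting point raised past a set limit in the mean and every replicate; inconclusive means no clear call; three in four hits are not shown here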
Target sequence (Q9HCT0 whole entry, looked up): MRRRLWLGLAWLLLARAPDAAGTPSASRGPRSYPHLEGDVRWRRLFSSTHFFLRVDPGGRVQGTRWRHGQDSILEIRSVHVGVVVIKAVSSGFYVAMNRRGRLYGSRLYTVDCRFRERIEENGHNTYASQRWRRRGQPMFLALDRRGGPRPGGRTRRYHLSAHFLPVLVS
RanGTP-Imp inh – disruptors of Ran-importin-beta complex formation – biochemical, FRET, CFP-Ran, YFP-importin-beta, homogeneous, primary screen; cell-free CFP-Ran/YFP-importin-beta FRET ratio; inhibition, % (concentration not given with the values); 300,000 compounds, 1.1% hits; AID 2216;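 active means most replicates above 15%; inconclusive means exactly half above 15%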;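 further: 0% = DMSO wells and 100% = Ran loaded with GDP instead of GTP; wells of about 40 µL received 100 nL stock; the first replicate is given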
rRNA inh HTS OD600 – recorded beside rRNA inh HTS, whose call it bears; OD600 change, %; measured here: OD600 growth;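 optical density of the mix in the first replicate; 0 = DMSO median and -100 = no signal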
rRNA inh HTS RFP – further read-out of rRNA inh HTS, marked with its call; RFP signal change, %; measured here: RFP humanized mutant strains;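 first replicate; 0 = DMSO median and -100 = no signal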
Numbers without * were called inactive; i = inactive; u = inconclusive; x = not tested or not shown; + = active, no number. Only part of the results is shown; rates above refer to the full screens.

smiles	rRNA inh HTS RFP	Beta apoptosis	ALR H2O2 inh	T cruzi inh	rRNA inh HTS	RanGTP-Imp inh	FGF22 binding	Calb FLC	AF4-AF9 inh	rRNA inh HTS OD600
COc1ccc(S(=O)(=O)N2CCOCC2)cc1NC(=O)CN1CCCC1	0.5	-12	x	-10	8	0.1	i	-4	-9.3	4
O=C(COC(=O)c1cccc(S(=O)(=O)N2CCN(c3ccccc3)CC2)c1)NCC1CCCO1 (centres undefined)	-4.7	2	-4	-6	3	2.0	i	12	7.5	1
O=C(Nc1ccccc1)C(=O)Nc1ccc2c(c1)N(C(=O)C1CC1)CCC2	-1.7	31	x	2	-5	4.6	i	-7	-14	-8
Cc1ccc(C2CC(c3ccccc3C)n3nc(N)nc3N2)cc1 (centres undefined)	0.4	-4	-2	23	-2	0.9	i	3	-5.2	-1
CCCC(=O)Nc1ccc(C(=O)Nc2cc(C(F)(F)F)ccc2Cl)cc1	x	4	2	20	x	0.0	x	2	x	x
Cc1ccc(C(=O)O)cc1NC(=S)NC(=O)c1ccc([N+](=O)[O-])cc1Cl	x	-2	-7	5	x	-3.3	i	-8	-3.4	x
CC1=C(C(=O)Nc2cccnc2)C(c2cccnc2)n2nc(-c3cccs3)nc2N1 (centres undefined)	x	-5	36	39	x	-1.0	x	5	x	x
C[C@@]12C(=O)Nc3cc(F)ccc3C(=O)N1[C@H]1c3cc(Br)ccc3OC[C@@H]1[C@@H]2c1ccccc1	-4.3	-11	0	x	0	x	i	x	-0.5	-8
CCc1noc(C)c1C(=O)N(C)CC(=O)Nc1ccc(F)c(F)c1F	3.0	2	-6	-2	9	-0.9	i	0	2.5	13
O=C(NC1CCCc2ccccc21)c1ccc2c(c1)OCO2 (centres undefined)	-4.1	-5	-1	-4	-11	1.8	i	-11	-1.2	-5
FC(F)(F)COc1ccc(-c2nnc(SCc3ccccc3)o2)cn1	-2.6	-20	2	-13	-2	3.4	i	5	-1.3	5
Cc1noc(C)c1CN(C(=S)NC(C)C)c1ccccc1	-7.3	-2	3	-31	2	4.4	i	-9	-47	-10
CCCN(CCC)CCCNC(=O)c1cc2cc3ccc(OC)cc3nc2o1	x	4	-6	45	x	0.8	x	-10	x	x
CCOC(=O)C1CCN(C(=O)Nc2ccc(OC(F)(F)F)cc2)CC1	1.8	0	-6	-34	-1	1.7	i	-7	-0.2	2
CN(c1ccccc1)S(=O)(=O)c1nnc(NC(=O)COc2ccccc2)s1	-0.3	3	-5	-11	-6	1.5	i	-3	-0.1	-6
CN(C)CCCNc1oc(-c2cccc(Cl)c2)nc1C#N	x	1	46	36	x	0.1	x	0	x	x
CCc1ccc(C(=O)NC(=S)NCc2cccnc2)cc1	3.7	-5	3	-2	1	0.3	i	12	-8.5	-20
COC(=O)c1sccc1NC(=O)CC1C(=O)NCCN1C(=O)Nc1ccc(OCc2ccccc2)cc1 (centres undefined)	-2.5	5	5	12	-7	-2.5	i	8	-3.3	-6
CCNC(=O)CSc1nc(-c2ccccc2)cs1	-1.6	-8	-8	-9	5	0.6	i	2	-2.5	0
Cc1nn(-c2ccccc2)c(N2CCCC2)c1/C=N/NC(=S)Nc1ccccc1F	x	x	-6	11	x	-2.8	i	0	-0.4	x
COc1ccc(Cl)cc1NC(=O)COC(=O)c1ccc(Br)o1	-1.9	-10	4	x	6	x	i	x	0.3	2
Cc1ccc(/C=N/n2c(-c3cccs3)n[nH]c2=S)cc1	x	8	43	-6	x	u	x	47	x	x
O=C(Cc1ccccc1)N/N=C/c1ccccc1Cl	x	2	1	1	x	x	x	116*	x	x
COc1ccc([C@H]2[C@H](C(=O)OC(C)(C)C)N3N=Cc4ccccc4C3C23C(=O)c2ccccc2C3=O)c(OC)c1 (some centres undefined)	x	4	x	1	x	-3.0	x	-6	x	x
CCCS(=O)(=O)N1CCC(C(=O)NCCN(CC)c2ccccc2)CC1	x	-2	71	-4	x	-0.7	x	-3	x	x
O=C(c1ccccc1F)c1cc2c(cc1[N+](=O)[O-])OCCO2	-3.5	-10	-23	-7	-3	-4.1	i	-9	3.5	-2
N#CCNC(=O)c1cccn1-c1ncc(C(F)(F)F)cc1Cl	0.8	-4	-1	-13	9	0.0	i	-10	0.4	1
COc1ccc(NC(=O)N[C@@H](CCSC)C(=O)O)cc1OC	-1.4	-12	-32	1	3	-0.7	i	-18	-5.1	3
COc1ccc(/C=N/N=C2/SCC(=O)N2Cc2ccccc2)cc1	10.0	-2	-3	22	22	1.4	i	-8	6.6	4
CC1(C)CC(=O)C=C(Nc2ccc(Br)cn2)C1	-1.6	-3	-7	-7	1	u	i	-2	-1.6	-2
Nc1ccc(S(=O)(=O)NC2=NCCCCC2)cc1N	2.8	-16	-20	-13	5	-1.2	i	-4	0.1	7
C/C(=N\NC(=S)NCc1ccccc1)c1ccc2c(c1)OCCO2	-1.2	1	-11	-19	-23	-3.0	i	30	10	-30
COc1ccc(/C=C/c2cc[n+](C(=O)Cc3ccccc3)cc2)cc1	x	3	2	x	x	x	i	-46	13	x
Cc1c(/C=N/N=C2\CCC3C4CCc5cc(O)ccc5C4CCC23C)cnn1C (centres undefined)	x	-4	0	-12	x	30	x	-3	x	x
COc1ccc(O)c(C(=O)c2cc(C#N)c(=O)n(CCN3CCOCC3)c2)c1	x	1	18	-2	x	0.9	x	-11	x	x
Cc1ccccc1N1CC(C(=O)Nc2ccc(S(=O)(=O)N3CCCCC3)cc2)CC1=O (centres undefined)	1.4	-2	3	1	-4	0.8	i	-13	-1.1	-11
COc1ccc(-c2nnc(SCC(=O)c3cccs3)n2-c2ccc(Cl)cc2)cc1	x	8	5	25	x	9.2	x	u	x	x
COc1ccc(C2(CNC(C)=O)CCCC2)cc1OC	x	-5	-14	-6	x	1.5	x	-32	x	x
COC(=O)c1c(C)[nH]c(C(=O)/C=C/c2cccc(Cl)c2)c1C	x	5	u	47	x	0.5	x	6	x	x
CC(C)C[C@H]1CN=C(Nc2ccccc2)N1CC1CCC1	4.9	-4	-5	3	2	8.4	i	-32	4.4	0
O=C(COC(=O)/C=C/c1ccc(Cl)cc1Cl)NCC1CCCO1 (centres undefined)	1.7	-4	12	x	1	x	i	x	2.1	6
CCC1(CC)NC(=O)N(CC(=O)N2CCc3ccccc32)C1=O	2.1	-2	-1	x	5	x	x	x	2.7	4
O=C(Cn1nc(Cc2cccnc2)c2ccccc2c1=O)NCc1ccc2c(c1)OCO2	-3.3	-2	1	10	2	3.2	i	4	0.6	8
O=C(CCC1COc2ccccc2O1)Nc1ncccc1O (centres undefined)	x	-5	-15	2	x	-0.2	x	-2	x	x
Cc1ccccc1CN(C)CC(=O)Nc1ccccc1-c1ccccc1	x	-2	1	19	x	8.6	x	7	x	x
Cc1[nH]c(=O)[nH]c(=O)c1/C=N/NC(=O)[C@@H](NC(=O)OC(C)(C)C)C(C)C	x	4	4	-18	x	5.4	x	-1	x	x
COc1ccc(CCC(C)N2CCc3ccccc3C2)cc1 (centres undefined)	2.2	18	-2	1	-1	2.7	i	-4	1.9	-4
COC(=O)c1c(NC(=O)C(Cl)Cl)sc2c1C(C(=O)OC)CC2 (centres undefined)	-0.1	x	-18	12	-14	3.2	i	3	-1.5	5
N#CCSc1nnc(-c2sc3ccccc3c2Cl)o1	x	-9	5	4	x	-2.3	x	22	x	x
COc1ccc(CCNCC(=O)Nc2ccc(OC(F)(F)F)cc2)cc1OC	-0.7	x	-11	7	-18	u	i	-2	5.2	-13
CCOc1ccc(C2=NNC(c3cccs3)=Nc3ccc(OC)cc32)cc1OCC	x	-4	-1	22	x	-2.8	x	3	x	x
Cc1ccc(-c2ccnc3[nH]n(-c4ccccc4)c(=O)c23)cc1	8.4	-2	2	12	3	-1.4	i	20	1.1	4
Cc1cc(N2CCOCC2)n2nc(-c3cccc(F)c3)cc2n1	x	-2	-14	14	x	-0.2	x	19	x	x
O=C(c1cccc([N+](=O)[O-])c1)c1cc2ccccc2o1	-7.2	-9	-3	-8	12	2.0	i	0	-11	15
CCC(Nc1nc(-c2ccccc2)nc2ccccc12)C(=O)O (centres undefined)	-1.3	-7	-9	-14	-3	0.9	i	0	-0.3	1
Cc1c(Cl)cccc1NC(=S)NC1CC1	x	-4	6	-3	x	-0.8	x	-17	x	x
CCc1ccc2nc(N)sc2c1	0.0	-8	4	-9	5	0.3	+	22	0.0	6
N#CCN1C(=O)C(=O)N(Cc2cccc(C(F)(F)F)c2)C1=O	2.0	-6	-1	-19	3	-1.3	i	2	1.1	6
CCOC(=O)C1(CCOC)CCN(Cc2ccc(C(=O)OC)cc2)CC1	3.0	-2	2	-8	6	-2.1	i	-10	3.8	6
CCOc1ccc(N(Cc2cc3cc(C)ccc3[nH]c2=O)S(=O)(=O)c2ccccc2)cc1	1.3	-1	-7	-13	-2	-2.1	i	5	-0.1	12

Further compounds
smiles	rRNA inh HTS RFP	Beta apoptosis	ALR H2O2 inh	T cruzi inh	rRNA inh HTS	RanGTP-Imp inh	FGF22 binding	Calb FLC	AF4-AF9 inh	rRNA inh HTS OD600
CCC(C)COC(=O)c1ccc(C(=O)O)cc1 (centres undefined)	x	-1	-3	-5	x	0.2	x	6	x	x
COc1ccc(-n2c(SCC(=O)Nc3ccc(C(N)=O)cc3)nc3ccccc3c2=O)cc1OC	6.0	-1	x	2	8	-2.9	i	4	0.3	16
O=C(c1ccc([N+](=O)[O-])o1)N1CCc2ccccc2C1	-2.6	3	-25	57*	-6	1.8	i	-3	1.4	-12
CC(C)c1nc2sc3c(c2c(=O)o1)CCCC3	x	2	6	-15	x	0.4	x	x	x	x
CCOC(=O)C(NC(C)=O)(Nc1ccc(S(=O)(=O)Nc2ncccn2)cc1)C(F)(F)F (centres undefined)	0.1	-7	-11	-2	15	1.9	i	6	2.9	10
CNc1nc(Cl)nc(Nc2ccccc2)n1	-4.9	1	-17	0	11	0.7	i	5	-1.4	8
NC(=O)c1ccccc1OCCOCCOCCOc1ccccc1C(N)=O	-8.4	-3	-5	10	8	-1.1	i	8	3.2	7
COc1cccc(NC(=O)c2ccccc2F)c1	-2.9	1	x	x	5	x	i	x	3.1	1
O=C(CCS(=O)(=O)c1ccc(Cl)cc1)N1CCN(c2ccc(F)cc2)CC1	x	-3	27	x	x	x	i	x	-0.6	x
N/C(Cc1ccc([N+](=O)[O-])cc1)=N\OC(=O)c1cccc(Br)c1	-1.6	-6	3	23	2	3.1	i	u	-4.6	3
CC(=O)N1CCN(C23CC4CC(CC(C4)C2)C3)CC1	-0.2	2	-9	2	6	-3.4	i	1	1.8	6
O=C(NNC(=O)C1CC=CCC1C(=O)O)c1cccs1 (centres undefined)	-2.2	-4	1	-13	6	0.5	x	u	-1.2	4
CCOC(=O)C(C)n1cnc2sc(C)c(C)c2c1=O (centres undefined)	x	-5	-1	1	x	5.4	x	-1	x	x
COc1cccc(C(=O)NNC2=C(C(=O)C(F)(F)F)CCC2)c1	x	1	x	-13	x	-3.2	i	-27	-1.0	x
